# VDR inhibitor = inhibitors of human vitamin D receptor; Potency, µM, for inactives: max response, negative = inhibition, usual class: inhibitors; VDR-SRC2-3 peptide fluorescence polarization, 2 h; 0.93% of 400,000 active; P11473; active = well fitted inhibition curve with a large enough effect; inconclusive = small, poorly fitted or top-dose-only effect, or another doubt; inactive = no such curve, though single readings can be large or run the other way; note: series mostly up to about 120 µM
# Target sequence (P11473 whole entry, looked up): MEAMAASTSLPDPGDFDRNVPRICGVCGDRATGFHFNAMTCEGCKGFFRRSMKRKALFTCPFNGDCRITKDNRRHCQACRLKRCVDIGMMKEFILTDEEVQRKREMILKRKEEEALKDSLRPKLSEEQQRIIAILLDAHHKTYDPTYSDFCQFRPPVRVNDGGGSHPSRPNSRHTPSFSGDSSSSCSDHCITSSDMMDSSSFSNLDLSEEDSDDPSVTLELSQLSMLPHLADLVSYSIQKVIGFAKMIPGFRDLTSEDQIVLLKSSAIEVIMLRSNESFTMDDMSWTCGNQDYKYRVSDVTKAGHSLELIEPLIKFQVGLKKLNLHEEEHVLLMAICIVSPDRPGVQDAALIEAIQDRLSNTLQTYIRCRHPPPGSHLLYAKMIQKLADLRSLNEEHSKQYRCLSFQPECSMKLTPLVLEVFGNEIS
#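 Two reagent solutions held at 4 deg C in the dark were dispensed, compounds pinned at 23 nl, and the mixture incubated 2 h at room temperature. Read-out: fluorescence polarization of VDR–SRC2-3 peptide binding.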
# Active calls of the source: *; ? = inconclusive. % is set by controls: 0 for no effect and ±100 for the full control effect; potency is the fitted concentration of half-maximal effect. Not all compounds are listed, so the mix of outcomes need not match the whole.
mol,VDR inhibitor
Cc1ccc(N(CC(=O)NCc2ccc3c(c2)OCO3)S(=O)(=O)c2c(C)noc2C)cc1,-14.9%
Cc1cccc(C(=O)OCC(=O)Nc2c(C)nn(-c3ccccc3)c2C)c1O,0.9%
COc1cc2c(cc1OC)C(c1c(Cl)cccc1Cl)NC(=O)C2 (configuration not stated),-15.0%
CCC(=O)NCCc1nc2ccccc2n1Cc1ccccc1,16.2%
CC(Oc1ccc(Cl)cc1)C(=O)Nc1cccc(S(=O)(=O)N2CCOCC2)c1 (configuration not stated),-4.4%
CCc1ccc(-n2c(=O)c3c(C)c(C(=O)N(C)C)sc3n(Cc3ccccc3C#N)c2=O)cc1,7.2%
COc1cc(C2/C(=C(\O)c3ccc4c(c3)OCCO4)C(=O)C(=O)N2Cc2ccccc2)ccc1O (configuration not stated),11.1%
CCOc1cccc(CC(=O)N2CCc3c([nH]c4ccccc34)C2c2ccc(F)cc2)c1OCC (configuration not stated),6.6%
O=S(=O)(NCCc1csc(-c2cccnc2)n1)c1ccc2c(c1)OCCO2,-7.2%
CN(C)c1ncnc2ccc(-c3ccccc3C#N)cc12,3.8%
O=C(Nc1ccc(Cl)c(Cl)c1)N1CC=CCC1,-3.3%
Cc1cc(C)cc(NC(=O)C2CCCN(c3nccc(C)n3)C2)c1 (configuration not stated),19.6%
Cc1sc2nc(CSCC(=O)Nc3ccc(C(=O)N(C)C)cc3)[nH]c(=O)c2c1C,-12.0%
Cc1ccccc1N1CCN(C(=O)c2ccccc2NC(=O)/C=C\C(=O)O)CC1,-5.1%
NC(=O)c1ccccc1NC(=O)C(c1ccccc1)c1ccccc1,9.0%
CC(C)Sc1nc(N2CCCC2)c2c(c1C#N)CC(C)(C)OC2,2.1%
Nc1ccccc1SC/C=C/CSc1ccccc1N,-22.8%
N#CC1=C(N)Oc2c(oc(CO)cc2=O)C12C(=O)Nc1ccc(Cl)cc12 (configuration not stated),-5.4%
c1ccc(CN2CCN(c3nc(-c4ccccc4)nc4ccccc34)CC2)cc1,1.2%
COC(=O)c1c(OC)cc2c(c1C)Oc1c(Cl)c(O)c(Cl)c(C)c1C(=O)O2,39.8µM*
CCNC(=S)N(Cc1ccccc1)Cc1nc2ccccc2c(=O)[nH]1,-12.9%
CC(C)(C)c1nc(NCCO)c2nnn(Cc3ccccc3)c2n1,?
COc1ccc(NC(=O)CSc2[nH]c(=O)cc(C)c2C#N)cc1OC,7.6%
Cc1ccc(C2=CC(C)(c3ccc(C)cc3)Nc3nc(C(F)(F)F)nn32)cc1 (configuration not stated),-28.5%
O=C(NCCc1ccccc1)C(=O)NCC1OCCCN1S(=O)(=O)c1cc(F)ccc1F (configuration not stated),-4.3%
CCOC(=O)C1=C(CSc2nc(-c3ccncc3)ccc2C#N)OC(N)=C(C#N)C1c1ccc(OC)cc1 (configuration not stated),7.7%
Cc1cc(C)cc(NC(=O)NNC(=O)c2cc3occc3[nH]2)c1,-0.7%
CCN(N=Nc1cccc([N+](=O)[O-])c1)c1cccc([N+](=O)[O-])c1,5.5%
S=C(NN=C1CCN(Cc2ccccc2)CC1)NC1CCCCC1,-8.1%
O=[N+]([O-])c1cccc(COc2ccccc2CN2CCOCC2)c1,1.9%
CCN1C(=O)C(Cc2nc3ccccc3c(=O)n2-c2cccc(C)c2)c2ccccc21 (configuration not stated),9.5%
CN(C)CC1CCCCC1OC(=O)c1ccc(Cl)cc1Cl (configuration not stated),-12.8%
Cc1ccc(C)c(NC(=O)CCC(=O)N/N=C/c2ccc[nH]2)c1,21.4%
COc1ccc(O)c(C(=O)c2cnn(-c3ccccn3)c2)c1,-7.4%
CCOC(=O)C1=C(C)N(C)C(=O)NC1c1c(OC)ccc2ccccc12 (configuration not stated),-8.7%
CCc1n[nH]c2c1/C(=N\O)CC(C)(C)C2,10.7%
CCOC(=O)/C(C#N)=C1/C=CN(c2ccccc2)C=N1,4.7%
CCCCCn1c(=O)c(C(=O)OCC)c(Cl)c2ccccc21,-4.1%
C[C@H](NC(=O)Nc1ccccc1F)C(=O)O,-10.3%
COc1ccc(C(C)=O)cc1COC(=O)c1cc2ccccc2cc1O,2.5%
CC(C)CSc1nc2ccccc2n1CC(=O)O,8.4%
CCOC(=O)C1CCN(C(=O)c2cc(COc3ccc(F)cc3F)on2)CC1,?
Cc1ccc2oc(C(=O)NCCCN3CCOCC3)c(C)c2c1,-14.2%
CCOC(=O)c1ccc(N2CCN(C(=O)c3ccccc3)CC2)c(NC(=O)c2ccco2)c1,5.1%
Cn1nccc1NS(=O)(=O)c1ccc(NC(=O)C(F)(F)F)cc1,-4.5%
CCOc1ccc(-n2ccc(=O)c(C(=O)Nc3ccc(S(=O)(=O)Nc4nccs4)cc3)n2)cc1,11.2%
COc1ccc(OC)c(NC(=O)COC(=O)c2c(C)noc2C)c1,-1.2%
CCOc1ccc(-c2cccc(NS(=O)(=O)c3ccc(C)s3)c2)nn1,19.0%
CC1CCN(S(=O)(=O)c2ccc3c(ccn3CC(=O)O)c2)CC1,8.6%
COc1ccc(CC(=O)NCCc2csc(-c3ccc(C(F)(F)F)cc3)n2)cc1,9.2%
CCC(C(=O)OCC(=O)Nc1ccc(C(=O)Nc2ccc(OC)cc2)cc1)c1ccccc1 (configuration not stated),5.6%
Cc1cc(C(=O)CN2C(=O)NC(c3ccccc3)(c3ccccc3)C2=O)c(C)n1Cc1ccco1,-5.5%
CCOc1ccc(-c2cc3c(=O)n(CC(=O)NCc4ccccc4)ccn3n2)cc1,-0.5%
COc1cccc(CNC(=O)c2cc3n(n2)CCCN(Cc2ccc(C)cc2)C3=O)c1OC,8.3%
Cc1ccc(-c2nc3ncccc3o2)cc1NC(=O)c1cccs1,-5.5%
O=C(c1ccc(N2CCCC2=O)cc1)N1CCN(c2ccccc2O)CC1,4.4%

# (list continues)
mol,VDR inhibitor
COc1ccc(C)cc1S(=O)(=O)N1CCN(S(=O)(=O)c2cc(C)ccc2OC)C(C)C1 (configuration not stated),12.8%
Cc1c(C2(O)CCCCC2)[nH]c2cc(C(F)(F)F)ccc12,10.9%
CCCc1cc(-n2cnc3ccccc32)n2c(nc3ccccc32)c1C#N,2.7%
Cc1nc(SCC#N)c2c3c(sc2n1)CCC3,19.7%
CO[C@H]1C[C@@H]2CC[C@@H](C)[C@@](O)(O2)C(=O)C(=O)N2CCCC[C@H]2C(=O)O[C@H](C(C)C[C@H]2CC[C@@H](O)[C@H](OC)C2)CC(=O)[C@H](C)/C=C(\C)[C@@H](O)[C@@H](OC)C(=O)[C@H](C)C[C@H](C)/C=C/C=C/C=C/1C (some centres not stated),2.1%
CC(C)c1ccc(NC(=O)c2cc(S(=O)(=O)N3CCCCC3)cn2C)cc1,5.0%
O=c1c2ccccc2ncn1Cc1ccccc1,17.8%
O=C(NCCCNc1ccc([N+](=O)[O-])cc1Cl)c1ccccc1F,8.2%

# Some of these compounds in order of molar mass, rising:
mol,VDR inhibitor
O=c1c2ccccc2ncn1Cc1ccccc1,17.8%
Cc1c(C2(O)CCCCC2)[nH]c2cc(C(F)(F)F)ccc12,10.9%
CC(C)c1ccc(NC(=O)c2cc(S(=O)(=O)N3CCCCC3)cn2C)cc1,5.0%
COc1ccc(C)cc1S(=O)(=O)N1CCN(S(=O)(=O)c2cc(C)ccc2OC)C(C)C1 (configuration not stated),12.8%

# Continuation:
mol,VDR inhibitor
Cc1cccc(NC(=S)NCCc2ccccc2)n1,-5.4%
Cc1nc(-c2cccc(NS(=O)(=O)c3ccccc3)c2)cs1,2.6%
Cn1c(=O)c2sccc2n2c(CCCC(=O)Nc3ccc(Cl)cc3)nnc12,12.7%
N=C1SCC(=O)N1c1ncc(Cc2cccc(Cl)c2)s1,6.6%
Cc1onc(-c2ccccc2Cl)c1C(=O)NCc1ccccn1,-12.0%
CCNC(=S)SCCOc1ccc(C)cc1,-2.2%
CCCN(CC1CC1)C(=O)COc1ccccc1C(=O)NCc1ccccc1,1.3%
CC[C@@]1(O)C[C@H](O[C@H]2C[C@@H](N(C)C)[C@@H](O[C@H]3C[C@@H](O)[C@@H](O[C@H]4CCC(=O)[C@@H](C)O4)[C@@H](C)O3)[C@@H](C)O2)c2c(cc3c(c2O)C(=O)c2c(O)cccc2C3=O)[C@H]1C(=O)OC,?
CC(C)c1ccc(C2NC(C(=O)O)CS2)cc1 (configuration not stated),5.6%
CN(CC(=O)NCC(=O)Nc1ccc(F)cc1)CC(=O)Nc1ccc(Cl)c(C(F)(F)F)c1,-21.7%
CC(C)COc1ccc(C(=O)Nc2scc(-c3ccc(Cl)cc3Cl)c2C(N)=O)cc1,-8.0%
Cc1ccc(NC(=O)COC(=O)CSC(=S)N2CCOCC2)cc1,-0.3%
O=C(COC(=O)C(Cc1ccccc1)NC(=O)c1ccc(Cl)cc1)c1ccc(Cl)cc1 (configuration not stated),-3.8%
Cc1ccsc1C(=O)OCC(=O)N(Cc1ccccc1)C(C)C,2.6%
CCc1nnc(NC(=O)c2ccc(S(=O)(=O)N(CCOC)CCOC)cc2)o1,5.8%
O=C(CSc1nc2ccccc2[nH]1)Nc1nc(-c2ccc(Br)cc2)cs1,-19.7%
COc1ccc(CCNc2oc(COc3ccccc3)nc2C#N)cc1,-7.7%
COc1cc(OC)cc(C(=O)N(Cc2cc3cc(C)ccc3[nH]c2=O)C(C)C)c1,6.7%
CCOc1ccc(NC(=O)CSc2ccc(-c3sc(-c4ccccc4)nc3C)nn2)cc1,9.8%
O=c1cc(-c2ccccc2)oc2ccc(O)cc12,-24.6%
Cc1nc2ccccc2c(=O)n1-c1ccc(NC(=O)c2ccccc2[N+](=O)[O-])cc1,19.7%
O=C(COC(=O)c1cccc(S(=O)(=O)NCc2ccccc2)c1)Nc1ccccc1OC(F)F,0.6%
C=CCOn1c(-n2nc(C)cc2C)nc2ccccc2c1=O,-10.4%
COc1ccc(CN=C(Nc2ccccc2)SC2CC(=O)N(C)C2=O)cc1 (configuration not stated),-10.3%
Cc1ccc(N=Nc2c(N)n(-c3ccccc3)[nH]c2=O)cc1,-13.0%
O=C(Nc1nc2ccc([N+](=O)[O-])cc2s1)C1CCCO1 (configuration not stated),2.4%
Cc1ccc(S(=O)(=O)N2CCN(C(=O)CCc3nc4ccccc4c(=O)[nH]3)CC2)c(C)c1,6.8%
COc1cccc(Cn2c(N)c(C#N)c3nc4ccccc4nc32)c1OC,6.3%
NS(=O)(=O)OCC1CCCCC1,-12.9%
C=CC(C1=CC(=O)C(OC)=CC1=O)c1ccc(O)cc1 (configuration not stated),-18.2%
CCN1CCN(C(=O)C(NS(=O)(=O)c2ccc3nc(C)sc3c2)C(C)C)CC1 (configuration not stated),-6.6%
CCc1nc2c(s1)CCc1onc(-c3ccc(Cl)cc3)c1-2,0.5%
Fc1ccc(Cc2cn3cc(-c4ccc(Cl)cc4)nc3s2)cc1,9.4%
COc1ccc(S(=O)(=O)N2CC=C(C(=O)NC3CCCC3)CC2)cc1,-24.2%
CN(CCO)C(=O)c1ccc(-c2nn(C)c(=O)c3ccccc23)cc1,1.4%
Cc1cccc(N2CC(C(=O)Nc3ccc(S(=O)(=O)N4CCOCC4)cc3)CC2=O)c1C (configuration not stated),-2.0%
O=C(CSc1ncccn1)N1CCCCCC1,2.7%
Cc1c(CNC2CCCCC2)c(C(=O)O)c(C)n1Cc1ccccc1F,-1.8%
O=C1c2ccccc2S(=O)(=O)N1CC1CC(c2ccc(Cl)cc2)=NO1 (configuration not stated),-9.9%
CCCCCn1c(SC(C)C(C)=O)nc2c1c(=O)[nH]c(=O)n2C (configuration not stated),3.8%
Cc1ccc(C)c(S(=O)(=O)NCCCN2CCOCC2)c1,-5.2%
O=C(N=C1SC2CS(=O)(=O)CC2N1c1ccc(Cl)cc1Cl)C1CC1 (configuration not stated),14.5%
COc1ccc(-c2nn(-c3ccccc3)cc2C2CC(c3cccs3)=NN2C(=O)CCC(=O)O)cc1 (configuration not stated),8.8%
O=C(NCC(c1ccc(F)cc1)N1CCOCC1)c1ccc(Br)o1 (configuration not stated),13.5%
Cc1ccc(NC(=O)C2=NNC(=O)CC2)cc1F,-11.0%
Fc1cccc(F)c1-c1nc2c(s1)CCc1onc(-c3ccc(Br)cc3)c1-2,1.5%
CCOC(=O)C1=C(C)NC(=O)NC1/C=C/c1ccccc1OC (configuration not stated),10.6%
O=C(Cc1ccc(Cl)cc1)Nc1cccc(S(=O)(=O)N2CCCCC2)c1,7.3%
O=C(NCc1ccc(F)cc1)C1CCCN(C(=O)Nc2ccc(F)cc2)C1 (configuration not stated),16.4%
CC(=O)c1ccc(NC(=S)Nc2ccc(Br)c(Cl)c2)cc1,-12.1%
CCn1cc(C(=O)OCC(=O)N(C)C2CCS(=O)(=O)C2)c(=O)c2ccc(C)nc21 (configuration not stated),0.4%
Cc1cccc(C(C)C)c1NC(=O)C1CCCN1S(=O)(=O)c1cccc2nsnc12 (configuration not stated),-2.4%
COc1ccccc1NC(=O)c1ccc2oc(=O)c(S(=O)(=O)c3ccccc3)cc2c1,-11.8%
Cc1cccc(Cn2c(CN3CCC(C(=O)NCc4cccnc4)CC3)cc3ccccc32)c1,4.5%
N#C/C(=C\C=C\c1ccccc1)c1nc(-c2ccc(Cl)cc2)cs1,6.0%
COc1cc(C(=O)NCc2nnc(SCC(=O)Nc3nc4ccccc4s3)o2)cc(OC)c1OC,-8.9%
CC(/C=C/c1ccc2c(c1)OCO2)=N/NC(=O)c1ccncc1,-10.5%
